Calb biofilm kill: mixtures killing C. albicans biofilm | C. albicans biofilm persisters + clotrimazole, fluorescence viability; primary screen in compound mixtures of four per well | inhibition, % at 7.6 µM | hit rate 0.02% among 120,000;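 active = inhibition above 30.3% in the primary screen of four-compound pools, then above 30% when the compound was retested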;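 note: compounds exposed to preformed 24 h biofilms for 48 h; the number belongs to the whole pool; some results filed as inactive read as strong as hits; inactives centre near 12; 0% = biofilm with clotrimazole alone and 100% = kill control; retested singly at about 60 µM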
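Test system: C. albicans CAF4-2 wild-type biofilms; buffer or medium: RPMI/MOPS medium, pH 7.0; schedule: 24 h biofilm formation, then 48 h compound exposure, 37 °C; detection: Alamar Blue fluorescence; measure: percent inhibition of biofilm viability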
Numbers without * were called inactive.

SMILES	Calb biofilm kill
COc1cccc(NC(=S)N/N=C2\CC3CCC2(C)C3(C)C)c1 (centres undefined)	0
N#CCCN(CCN1CCCC1)S(=O)(=O)c1ccc(-c2ccc([N+](=O)[O-])cc2)cc1	10
O=C(/C=C/c1ccco1)Nc1ccc(C(=O)N2CCOCC2)cc1	1
Cc1nc(CN(C)Cc2nc(Cc3ccccc3Cl)no2)cs1	11
CC(=O)c1cccc(NC(=O)COC(=O)c2ccc(S(C)(=O)=O)c([N+](=O)[O-])c2)c1	4
COc1ccc(CCNC(=O)CSc2cccc3cccnc23)cc1OC	13
COc1ccc2c(/C=N/NS(=O)(=O)c3ccc(C)cc3)c[nH]c2c1	8
COc1ccc(CN(Cc2ccc(C(=O)O)cc2)C(=S)Nc2cc(C)cc(C)c2)cc1OC	10
CCC(C)(NC(=O)c1ccccn1)C(=O)NC1CCCC1 (centres undefined)	2
O=[N+]([O-])c1ccc(-c2nn(-c3ccccc3)cc2/C=N/n2c(-c3ccncc3)n[nH]c2=S)cc1	13
O=C(CSc1nnnn1C1CCCC1)NCCc1ccccc1	8
CCCCNS(=O)(=O)c1ccc(S(=O)(=O)NCc2ccncc2)cc1	14
CN1N=C(C(=O)N2CCCC(C(=O)c3cccc(C(F)(F)F)c3)C2)CCC1=O (centres undefined)	14
Cc1ccc(S(=O)(=O)/N=C(/c2ccccc2)N2CCOCC2)cc1	6
O=C(NCCN1CCCC1)c1ccccc1Cl	16
COc1ccc(-n2nc(C(=O)NCC(=O)N3CCN(c4ccccn4)CC3)c3ccccc3c2=O)cc1Cl	12
Cn1nnc(NC(=S)NC(=O)c2ccccc2)n1	25
COc1ccccc1C(=O)OCC(=O)Nc1ccc(Cl)cn1	14
Cc1ccc(S(=O)(=O)NC(C(=O)Oc2ccc3c(C(F)(F)F)cc(=O)oc3c2)c2ccccc2)cc1 (centres undefined)	0
CCC(C)NC(=O)/C=C/c1cccs1 (centres undefined)	8
CN(C)S(=O)(=O)c1cc(C(=O)NCc2ccccc2)c(Cl)cc1Cl	15
COc1ccc(C(=O)NC2CCN(C(=S)Nc3ccccc3C)CC2)cc1	12
O=C(O)c1ccc(Cn2cnc3scc(-c4ccccc4)c3c2=O)cc1	13
CCOC(=O)CC(c1ccc([N+](=O)[O-])cc1)n1c(C)ccc1C (centres undefined)	-1
O=C(Nc1ccccc1NC(=O)c1csnn1)c1csnn1	14
Nc1ccc(C(=O)OCC(=O)Nc2ccc([N+](=O)[O-])cc2C(F)(F)F)cc1	26
COCCCNC1=C(Cl)C(=O)c2ccccc2C1=O	24
Cc1ccc(C(=O)NNC(=O)C2CCN(S(=O)(=O)c3ccc(C)cc3)CC2)cc1	22
COCC1CCN(Cc2cn[nH]c2-c2cc(OC)c(OC)c(OC)c2)CC1	7
Cc1nc(N2CCOCC2)[nH]c(=O)c1[N+](=O)[O-]	15
Nc1nonc1-n1nnc(C(=O)N/N=C/c2ccccc2)c1CSc1ccccc1	15
O=C(Nc1cc(-c2ccccc2)[nH]n1)c1ccccc1	26
COCC(=O)N1CCC(Oc2ccc(C(=O)NCc3cnc(C)cn3)cc2)CC1	13
CC1CC(C)CN(C(=O)Cc2c(C(=O)O)[nH]c3ccc(Cl)cc23)C1 (centres undefined)	20
CCN(CC)CCNC(=O)/C(=N\O)c1ccccn1	-7
COc1cc(/C=C(\C#N)c2ccccn2)ccc1OCc1ccccc1	15
C=CCN(C(=O)c1cc(C)cc(C)c1)C1(C(=O)Nc2ccccc2)CCN(C(C)C)CC1	0
O=C(Cc1cccs1)Nc1nnc(SCc2ccc(Br)cc2)s1	8
CCc1ccccc1NC1=CC(=O)CC(C)(C)C1	14
COc1cc(C(F)(F)F)c(C(=O)N(C)c2ccc(Cl)cc2)cn1	16

Laid out differently: 17 of the compounds above.
Molecule | Calb biofilm kill
CCOC(=O)CC(c1ccc([N+](=O)[O-])cc1)n1c(C)ccc1C (centres undefined) | -1
O=C(Nc1ccccc1NC(=O)c1csnn1)c1csnn1 | 14
Nc1ccc(C(=O)OCC(=O)Nc2ccc([N+](=O)[O-])cc2C(F)(F)F)cc1 | 26
COCCCNC1=C(Cl)C(=O)c2ccccc2C1=O | 24
Cc1ccc(C(=O)NNC(=O)C2CCN(S(=O)(=O)c3ccc(C)cc3)CC2)cc1 | 22
COCC1CCN(Cc2cn[nH]c2-c2cc(OC)c(OC)c(OC)c2)CC1 | 7
Cc1nc(N2CCOCC2)[nH]c(=O)c1[N+](=O)[O-] | 15
Nc1nonc1-n1nnc(C(=O)N/N=C/c2ccccc2)c1CSc1ccccc1 | 15
O=C(Nc1cc(-c2ccccc2)[nH]n1)c1ccccc1 | 26
COCC(=O)N1CCC(Oc2ccc(C(=O)NCc3cnc(C)cn3)cc2)CC1 | 13
CC1CC(C)CN(C(=O)Cc2c(C(=O)O)[nH]c3ccc(Cl)cc23)C1 (centres undefined) | 20
CCN(CC)CCNC(=O)/C(=N\O)c1ccccn1 | -7
COc1cc(/C=C(\C#N)c2ccccn2)ccc1OCc1ccccc1 | 15
C=CCN(C(=O)c1cc(C)cc(C)c1)C1(C(=O)Nc2ccccc2)CCN(C(C)C)CC1 | 0
O=C(Cc1cccs1)Nc1nnc(SCc2ccc(Br)cc2)s1 | 8
CCc1ccccc1NC1=CC(=O)CC(C)(C)C1 | 14
COc1cc(C(F)(F)F)c(C(=O)N(C)c2ccc(Cl)cc2)cn1 | 16

The listing continues:
SMILES	Calb biofilm kill
COc1cccc(C(c2c(N)[nH]c(=S)[nH]c2=O)c2c(N)[nH]c(=S)[nH]c2=O)c1	6
Cc1ccc(/C=N/n2c(-c3ccco3)n[nH]c2=S)cc1	17
S=C(Nc1ccc(Cl)cc1)NC1CCN(Cc2ccccc2)CC1	20
NS(=O)(=O)c1ccc(NC(=O)COC(=O)c2ccc(Cl)nc2)cc1	10
O=C(CSc1nc(-c2cccs2)cc(C(F)(F)F)n1)NCCCn1ccnc1	10
C=CCNC(=S)NNC(=O)c1cccc(Br)c1	9
COc1ccc(C2=NN(C(=O)/C=C/c3ccccc3)C(c3ccccc3)C2)c(OC(C)=O)c1 (centres undefined)	-10
COc1ccc2c(c1)O[C@H](c1ccc3c(c1)OCO3)[C@@H](OC(=O)N[C@H]1CCCc3ccccc31)C2=O	17
OCCNCc1cccc(OCc2ccc(Cl)cc2)c1	15
Brc1ccc(CN2C3=NCCCN3c3ccccc32)cc1	13
CCOC(=O)N1CCN(CC(=O)Nc2ccc(F)cc2F)CC1	17
CC(=O)N1[C@@H]2CC3C4CC=C5C[C@@H](O)CC[C@]5(C)C4CC[C@]3(C)[C@@]21C(C)=O (some centres undefined)	6
COC(=O)C1=C(C)NC(=O)NC1c1ccc(-c2ccccc2Cl)o1 (centres undefined)	4
COc1ccc(/C=N\Nc2ccccc2[N+](=O)[O-])c(C(=O)O)c1OC	18
Cc1nc2cc(C(=O)OCC(=O)Nc3ccc(C#N)cc3)ccc2n1-c1ccccc1	18
CCO[C@H]1OC(C(=O)N2CCN(Cc3ccccc3)CC2)=C[C@@H](C2CCCCC2)[C@@H]1CCCO	13
O=C(Nc1cccc(S(=O)(=O)N2CCOCC2)c1)c1ccc2c(=O)n3c(nc2c1)CCCCC3	13
COc1ccc(-c2cn3ccccc3n2)cc1[N+](=O)[O-]	1
O=C(Nc1ccc(F)cc1)c1ccccc1NS(=O)(=O)N1CCCC1	7
CC1(C(=O)NNC(=S)NCc2ccco2)CC1(Cl)Cl (centres undefined)	-6

As entered above.
For Calb biofilm kill, `COc1cccc(NC(=S)N/N=C2\CC3CCC2(C)C3(C)C)c1` (centres undefined) is entered as 0
For Calb biofilm kill, `CCOC(=O)N1CCN(CC(=O)Nc2ccc(F)cc2F)CC1` is entered as 17

New compounds follow:
SMILES	Calb biofilm kill
COC(=O)[C@@]1(Cc2ccc(OC)cc2)[C@@H]2[C@@H](CC(=O)[C@H]2CC(=O)C(=O)N(C)C)CN1C(=O)c1ccccc1	7
COc1ccc(-n2nc([N+](=O)[O-])c(=NCCc3ccccc3)n2O)cc1	13
CCOCCCNC(=O)C(NC(=O)c1ccccn1)c1ccc(C)cc1 (centres undefined)	10
Cc1ccc(C=Nc2cc([N+](=O)[O-])ccc2C)s1	12
COC(=O)CCCC1=CC2=CC(=O)C(C)(OC(=O)c3cccs3)C(=O)C2=CN1CCN1CCOCC1 (centres undefined)	14
Cc1c(C(=O)NN)nn(-c2ccc(Cl)cc2)c(=O)c1C#N	8
O=C(Cn1cncn1)N/N=C/c1cccc2ccccc12	14
CSc1cccc(NC(=O)C2(S(=O)(=O)c3ccc(C)cc3)CC2)c1	25
COc1ccc2c(CSc3nnc(-c4cccnc4)n3-c3ccccc3F)cc(=O)oc2c1	1
O=[n+]1c2c(n([O-])c3cc(Br)ccc31)CCCC2	19
OC1(c2ccc(F)cc2)CN(c2ccccc2)C2=[N+]1CCS2 (centres undefined)	4
CCS(=O)(=O)c1ccc(O)c(NC(=O)COc2ccc(C)cc2)c1	14
O=C(NCc1ccccc1)c1nc2c(nnn2Cc2cccc(Cl)c2)c(=O)[nH]1	13
COc1cccc(-c2nc3sc4c(c3c(=O)[nH]2)CCCCC4)c1	9
CC(Oc1ccccc1)C(=O)N1CCN=C1SCc1ccc(F)cc1 (centres undefined)	30
Cc1ccc(Nc2nc3ccccc3c(=O)s2)cc1	25
O=C1NC2(CCCC2)C(=O)N1Cc1cc(=O)n2ccsc2n1	6
CCOC(=O)c1cc(-c2ccccc2)nc2ccc(C)cc12	-3
Oc1ccc(Nc2nc(Cl)nc(NCc3ccco3)n2)cc1	12
N#Cc1ccc(-c2csc(NC(=O)c3cc(-c4cccs4)nc4ccccc34)n2)cc1	14
Cc1nnc(N/N=C/c2ccc(-c3ccc(Br)cc3)o2)n1N	9
CN1C(=O)/C(=C/c2ccc(-c3ccccc3[N+](=O)[O-])o2)SC1=Nc1ccc(Cl)c(C(=O)O)c1	4
COc1ccc(NC(=O)Cc2ccccc2)cn1	4
CS(=O)(=O)N(CCC#N)Cc1ccc(/C=C2\C(=O)Nc3ccccc32)o1	23
O=C1CCC(C(=O)N2CCC(CO)(Cc3ccc(Cl)cc3)CC2)=NN1	16
O=C(O)c1ccc2c(c1)C(=O)N(N1C(=O)c3ccccc3C1=O)C2=O	15
COc1ccc(S(=O)(=O)N(Cc2ccccc2)c2ccccc2C(=O)Nc2ccccc2C(=O)NCc2ccco2)cc1	8
O=C(N/N=C/c1cccs1)c1cnccn1	11
Cc1cc(SCC(=O)NCCC2=CCCCC2)nc2ccccc12	6
S=c1nc[nH]c2c1[nH]c1ccc(Cl)cc12	3
COc1ccc(CC(=O)NCc2n[nH]c(=S)n2-c2ccc(F)cc2)cc1	5
CCCCCC1CC(=O)C=C(C)C1C(=O)OC (centres undefined)	3
CCOC(=O)c1ccccc1NC(=O)CSc1ccccc1	19
OC1CCN(Cc2cn(Cc3ccccc3)nc2-c2cc3ccccc3o2)CC1	8
Cc1cc(C(=O)CSc2nc3ccccc3c(=O)[nH]2)c(C)n1CC1CCCO1 (centres undefined)	9
CC(NC(=O)Cc1ccccc1)C1COc2ccccc2O1 (centres undefined)	7
CCN1CCCC1CNC(=O)C(=O)Nc1cccc(OC)c1 (centres undefined)	11
CCNc1nc(N2CCCC2)nc(N2CCCC2)n1	13
C/C(CC(=O)Nc1cccnc1)=N\NC(=O)C(C)Oc1ccc(Cl)cc1Cl (centres undefined)	4
COc1ccc(CN(C)CC(=O)Nc2sc3c(c2C#N)CCC3)cc1OC	16
O=C(NNS(=O)(=O)c1ccc(F)cc1F)c1csc(-c2cccnc2)n1	-4
N#Cc1c(SCC(N)=O)nc2c(c1-c1ccncc1)CCCC2	15
Cc1ccc(C)c(SCc2nc3sc(C(=O)O)c(C)c3c(=O)[nH]2)c1	12
O=C(O)c1cccnc1Br	15
O=C(N/N=C/c1cccc(Cl)c1)c1c(O)c2c([nH]c1=O)CCCC2	9
COc1ccc(-c2[nH]ncc2CN2CCC(N3CCSCC3)CC2)c(F)c1	7
CCCN(CC(=O)Nc1cc(Cl)cc(Cl)c1)CC(=O)Nc1ccc(F)c(F)c1F	19
COc1ccc(/C=C/c2nnc(NC(=O)CC(C)C)s2)cc1	32
O=C1CSC(=Nc2ccccc2[N+](=O)[O-])N1	20
O=c1cc(-c2ccccc2)nc(SCCOc2ccccc2Cl)[nH]1	12
CCc1ccc(NC(=O)c2cc(Br)ccc2Br)cc1	3
CCCC1(CCC)C(=O)NC(=NCCc2ccc(OC)c(OC)c2)NC1=O	11
S=C(Nc1ccccc1)N1CCn2c(nc3ccccc32)C1	28
CC1c2ccsc2CCN1S(=O)(=O)c1ccccc1 (centres undefined)	15
CCNC(=S)NNC(=O)CSc1nc2ccccc2[nH]1	9
CCOC(=O)c1cccc(NS(=O)(=O)Cc2ccccc2)c1	17
CCOc1ccccc1NC(=S)Nc1ncccc1C	16
Cc1c(C(=O)NCc2ccc3c(c2)OCO3)cccc1[N+](=O)[O-]	8
Cc1ccc(S(=O)(=O)NC(=O)NC(=O)N(C)S(=O)(=O)c2ccc(C)cc2)cc1	13
CC(NC(=O)CCc1nnc(CCCc2ccccc2)o1)c1ccccc1 (centres undefined)	4
Next part:
SMILES	Calb biofilm kill
O=C(Nc1cc(C(F)(F)F)ccc1Cl)C(Sc1nnc(-c2cccs2)o1)c1ccccc1 (centres undefined)	9
Cn1nc(C(F)(F)F)c(CO)c1Sc1ccc(F)cc1	8
CC1CCCC(C)N1C(=O)c1cccc2c1-c1ccccc1/C2=N/O (centres undefined)	6
Cc1ccc(SCc2ccc(C(=O)Nc3ccccc3C(=O)NC(C)C)cc2)cc1	11
Cc1cc(C)cc(NC(=O)N2CCN(S(C)(=O)=O)CC2)c1	-3
CCCc1nc2oc3c(=O)[nH]cnc3c2c2c1COC(C)(C)C2	27
O=C(NC1CC1)C(=O)c1c(-c2ccccc2)[nH]c2ccccc12	19
CC(C)N1CCN(Cc2ccc(-c3ccccc3Cl)o2)CC1CCO (centres undefined)	19
COC(=O)N/N=C/c1cc([N+](=O)[O-])cc(Br)c1O	14
CC(=O)Nc1nc(-c2ccc(Cl)cc2)ns1	7

Bioassay records deposited in PubChem BioAssay by PCMD.

Not all compounds are listed; rates above refer to the full screens.
